# MbtI inh: blocks the Mycobacterium tuberculosis siderophore enzyme MbtI; P9WFX0; inhibition, %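 (about 17 µg/mL by stock and volumes)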; purified MbtI enzyme, fluorescence intensity read-out; 0.89% of 100,000 active; AID 493033;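 active = above 50% in both replicates, above 80% if mildly self-fluorescent; inactive = the rest, strongly fluorescent compounds included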;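 note: 0% = mean of negative and 100% = mean of positive controls; one replicate is shown; some compounds called inactive have numbers as strong as hits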
# Target sequence (P9WFX0 whole entry, looked up): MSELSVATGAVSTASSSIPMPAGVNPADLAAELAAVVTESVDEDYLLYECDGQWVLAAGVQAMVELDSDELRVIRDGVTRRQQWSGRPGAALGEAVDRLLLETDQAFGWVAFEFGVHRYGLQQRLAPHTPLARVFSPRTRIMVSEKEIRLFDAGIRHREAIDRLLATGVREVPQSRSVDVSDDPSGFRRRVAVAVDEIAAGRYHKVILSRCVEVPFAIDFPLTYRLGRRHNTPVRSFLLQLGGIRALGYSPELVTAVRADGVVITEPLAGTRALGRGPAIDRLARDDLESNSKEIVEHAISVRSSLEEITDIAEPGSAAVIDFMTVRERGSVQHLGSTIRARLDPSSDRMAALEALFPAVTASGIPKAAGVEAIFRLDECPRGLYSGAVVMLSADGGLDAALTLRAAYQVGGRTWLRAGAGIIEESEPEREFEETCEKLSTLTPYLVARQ
# Mtb MenB inh: inhibitors of Mycobacterium tuberculosis MenB enzyme; AID 540299; inhibition, %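 (about 12 µg/mL by stock and volumes)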; MenB enzyme assay, absorbance read-out; some hits fall short of the stated cut; 0.43% of 100,000 active;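 active = mean of two replicates above 30%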;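 note: 0% = no compound and 100% = wells with inactive enzyme; the first replicate is given; strong numbers were not always called active; inactives centre near -10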
# Target sequence (P9WNP5 whole entry, looked up): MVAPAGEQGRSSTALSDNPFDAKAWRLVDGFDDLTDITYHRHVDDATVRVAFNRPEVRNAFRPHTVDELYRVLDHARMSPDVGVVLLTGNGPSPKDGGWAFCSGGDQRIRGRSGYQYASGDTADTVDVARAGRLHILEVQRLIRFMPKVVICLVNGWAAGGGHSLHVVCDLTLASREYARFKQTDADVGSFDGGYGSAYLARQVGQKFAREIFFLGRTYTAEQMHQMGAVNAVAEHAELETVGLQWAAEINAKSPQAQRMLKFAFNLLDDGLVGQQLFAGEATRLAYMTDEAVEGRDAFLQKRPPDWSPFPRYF
# PV pol inh: poliovirus RNA polymerase inhibition | P03300 | AID 588519 | % elongation, % (compound at 16.7 µg/mL) | 0.66% of 150,000 active | poliovirus polymerase elongation, fluorescence polarization; active compounds read low; in the data active = % elongation below about 90%; note: some results filed as inactive read as strong as hits
# PV pol inh intensity: second read-out of PV pol inh, no call of its own (marks repeat the call); % elongation; measured here: total intensity read-out; formula for this scale not given here;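 total fluorescence in place of polarization; lower means less elongation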
# * = called active by the depositor; . = not tested or not shown; & = joins results of further samples.
# Preview (7 entries):
SMILES,MbtI inh,Mtb MenB inh,PV pol inh,PV pol inh intensity
COc1cc(C(=O)N2CCCCC2)cc(OC)c1OC,-1,1,98,102
O=C(Cc1n[nH]c(=O)c2ccccc12)NCC(c1ccc(F)cc1)N1CCOCC1 (stereo not given),-10,-12,108,114
O=C(Nc1cccc2ncccc12)c1cc2ccccc2o1,.,-15,105,104
CCN(C(=O)CSc1ncnc2ccccc12)C1CCCCC1,16,.,100,104
COc1ccc(CCNC(=O)C2CCCCC2)cc1OC,-9,-13,104,102
Cc1cc(C(=O)OCC(=O)NCc2ccco2)c(C)o1,8,-15,102,106
CCC(C)N=Cc1c(O)[nH]c(=O)[nH]c1=O (stereo not given),18,-12,98,92

# The listing (from the top)
SMILES,MbtI inh,Mtb MenB inh,PV pol inh,PV pol inh intensity
COc1cc(C(=O)N2CCCCC2)cc(OC)c1OC,-1,1,98,102
O=C(Cc1n[nH]c(=O)c2ccccc12)NCC(c1ccc(F)cc1)N1CCOCC1 (stereo not given),-10,-12,108,114
O=C(Nc1cccc2ncccc12)c1cc2ccccc2o1,.,-15,105,104
CCN(C(=O)CSc1ncnc2ccccc12)C1CCCCC1,16,.,100,104
COc1ccc(CCNC(=O)C2CCCCC2)cc1OC,-9,-13,104,102
Cc1cc(C(=O)OCC(=O)NCc2ccco2)c(C)o1,8,-15,102,106
CCC(C)N=Cc1c(O)[nH]c(=O)[nH]c1=O (stereo not given),18,-12,98,92
CC(C)CC(C(=O)c1c(N)n(C)c(=O)n(C)c1=O)N1C(=O)c2ccccc2C1=O (stereo not given),-7,-31,105,90
O=C(Nc1ccc(C(F)(F)F)cc1)Nc1ccc(N2CCN(c3ncccc3C(F)(F)F)CC2)nc1,-4,1,102,102
C=CCn1c(O)c(C=Nc2ccccc2)sc1=S,3&9,-393,101&96,99&134
Cc1ccc(NC(=O)Nc2ccc(C(F)(F)F)cc2)cc1NS(C)(=O)=O,4,9,101,100
CC(C)N(C(=S)Nc1ccc(Oc2ccccc2)cc1)C(C)c1ccccn1 (stereo not given),11,-53,101,103
Cc1cc(OCC(=O)NCc2ccc3c(c2)OCO3)ccc1Cl,-7,-2,103,103
CCCn1c(SCCCc2ccccc2)nc2c1c(=O)[nH]c(=O)n2C,2,3,98,102
C=CCc1cc(C=C2C(=O)NC(=O)NC2=O)cc(OC)c1OC,43,-12,100,98
O=C(Cn1c(CN2CCOCC2)nc2sc3c(c2c1=O)CCC3)N1CCc2ccccc21,-14,3,102,112
CC(C)(C)C1CCc2nc(NC(=O)Cc3cn4ccsc4n3)sc2C1 (stereo not given),-2,-27,104,108
CCN(CC)C(=O)CSc1ccc2c(c1)OCCO2,5,-25,104,103
CCn1c(=O)c2cc(C(=O)N(C)c3cccc(C(F)(F)F)c3)sc2c2ccccc21,6,-17,104,101
Cc1csc2nc(O)c(C(=O)NCC(C)O)c(=O)n12 (stereo not given),53,5,102,100
CNC(=S)NC1CC2CCC(C1)N2Cc1ccccc1 (stereo not given),-8,-61,105,103
CNC(=O)C1CC(=O)N(CCc2ccc(C)cc2)C1 (stereo not given),3,17,101,103
CSc1nc(C)cc(OCC(=O)N2CCCCC2)n1,-11,-11,104,108
COc1ccc2nc(NC(=O)c3nn(C(C)C)c(=O)c4ccccc34)sc2c1,-3,-8,103,102
Cc1ccc(N/N=C(\C#N)C(=O)c2cc(C)nn2C(C)(C)C)cc1,-24,-37,100,102
Nc1nnc(SCC(=O)N2CCN(c3ccccc3)CC2)s1,2,5,104,107
CCc1ccc(NC(=O)N(Cc2cccnc2)Cc2ccco2)cc1,-8,-1,103,107
CCN1CCOC(CC(=O)Nc2ccccc2C)C1=O (stereo not given),75*,-6,105,105
Cc1ccc(-c2ccc(CCC(=O)O)o2)cc1,188,-6,101,98
Fc1ccc(-c2csc(NC3=NCCC3)n2)cc1,-6,.,102,104
CC(C)(C)c1ccc(-c2nnnn2-c2ccccc2)cc1,.,-14,107,111
CC(N=C1NS(=O)(=O)c2ccccc21)c1ccc(F)cc1 (stereo not given),10,-29,.,.
COc1ccccc1NC(=O)COC(=O)C12CC3CC(CC(C3)C1)C2,-7,.,103,103
Cc1nnc2n1NC(c1ccc(Cl)cc1)=CS2,46,-14,101,108
O=C(O)CCCCC1SCC2NC(=O)NC21 (stereo not given),-12,-6,101,97
CC(C)NC(=O)C1CCCN(C(=O)N2CCOc3ccccc32)C1 (stereo not given),5,5,99,98
O=S(=O)(c1ccc(O)cc1)c1ccc(O)cc1,10,-17,103,104
Cc1sc(Cc2ccc(Cl)cc2)nc1O,.,-8,105,110
COC(=O)c1ccc(/C=N/NC(=O)CO)cc1,27,-9,102,103
CCOC(=O)c1nnn(-c2cccnc2)c1C,.,-4,110,118

# Laid out differently: results already given
O=S(=O)(c1ccc(O)cc1)c1ccc(O)cc1
  MbtI inh = 10; Mtb MenB inh = -17; PV pol inh = 103; PV pol inh intensity = 104
Nc1nnc(SCC(=O)N2CCN(c3ccccc3)CC2)s1
  MbtI inh = 2; Mtb MenB inh = 5; PV pol inh = 104; PV pol inh intensity = 107
COC(=O)c1ccc(/C=N/NC(=O)CO)cc1
  MbtI inh = 27; Mtb MenB inh = -9; PV pol inh = 102; PV pol inh intensity = 103
Cc1ccc(-c2ccc(CCC(=O)O)o2)cc1
  MbtI inh = 188; Mtb MenB inh = -6; PV pol inh = 101; PV pol inh intensity = 98

# Other structures:
SMILES,MbtI inh,Mtb MenB inh,PV pol inh,PV pol inh intensity
Cc1ccc(NC(=O)CCNS(=O)(=O)c2ccc3[nH]c(=O)ccc3c2)cc1Cl,14,-14,103,103
O=C(CC1CCCCC1)OCn1nnc2ccccc2c1=O,-1,-23,104,109
CC1C2CC(C/C2=N\NC(N)=S)C1(C)C (stereo not given),12,-82,101,99
N=C1C(c2nc3ccccc3[nH]2)=C(O)C(c2ccccc2)N1c1ccc2[nH]c(=O)[nH]c2c1 (stereo not given),-16,-46,139,160
NC(=O)/C=C/C(=O)Nc1ccccc1Cl,100*,-60,101,101
Cc1cc(C)n2nc(SCc3nc4ccc(Cl)cc4n3CCO)nc2n1,4,8,.,.
Cc1cc(-c2ccco2)n(CC(=O)NCc2ccccc2Cl)n1,6,-23,103,98
O=C1N=c2ccccc2=C1c1sc(N2CCCCC2)nc1O,81,-40,58*,61*
O=C1OC(c2ccccc2)=C/C1=C/c1ccc(Cl)cc1,13,-12,103,96
CN(C)c1ccc(/C=C2/C(=N)N3N=C(COc4ccccc4)SC3=NC2=O)cc1,-7,-23,97,154
CCOc1ccc(NC(=O)/C(C#N)=C\c2cc(C)n(C)c2C)cc1,-2,-10,101,101
Cc1oc(C(=O)O)cc1COc1cccc2ccccc12,-2,-17,97,101
CC1CCCCN1C(=O)c1ccccc1NS(=O)(=O)c1ccc(F)cc1 (stereo not given),-3,41*,101,104
O=C(c1cccc(F)c1)N1CCN(C(=O)c2cccc3ccccc23)CC1,-19,-2,100,102
CN(C)c1ccc(C2ON2C2CCC(O)CC2)cc1 (stereo not given),.,-17,116,114
NC(=O)C1CC(=O)N(c2ccccc2)C1 (stereo not given),0,-3,103,101
Cc1cc(NC(=O)CC(C)C)c(=O)n(Cc2ccccc2F)c1,91,-76,110,107
CCCCn1c(/N=C/c2nc3ccccc3n2C)nc2ccccc21,1,-30,98,105
O=S(=O)(c1ccccc1C(F)(F)F)N1CCNCC1,-9,-18,100,86
CC(=O)Nc1cccc(F)c1/C(N)=N/OC(C)=O,-3,-4,103,100
CC(C)CNC(=O)c1cc(-c2cccc(O)c2)on1,-7,-4,99,104
c1cc2c(cc1-c1nnc(CC34CC5CC(CC(C5)C3)C4)o1)OCO2,2,-13,101,100
COc1cccc(NC(=O)Nc2nnc(N3CC(C)CC(C)C3)s2)c1 (stereo not given),-13,2,102,100
COc1ccc(CCNC(=O)CN2C3CCCC2CC(=O)NC3)cc1OC (stereo not given),-4,-10,104,103
COc1ccc2cc(C(C)C(=O)Nc3cc(Cl)cc(Cl)c3)ccc2c1 (stereo not given),3,-51,105,98
Nc1cc(N)nc(SCC(=O)NC(=O)NC2CCCC2)n1,-7,-25,104,99
Nc1ccccc1-c1ccccc1N,-69,.,104,103
CCCC1=NN2C(=N)/C(=C/c3ccc(OCCOc4ccccc4)cc3)C(=O)N=C2S1,-5,-49,103,99
CN(Cc1ccccc1)C(=O)COC(=O)c1ccc(I)cc1,-4,.,103,106
CCC1CC(CN=CC2=C(O)CC(C)(C)CC2=O)C1(C)C (stereo not given),.,-2,102,108
O=C(Nc1cccc2cccnc12)C1CC(=O)N(C2CCCC2)C1 (stereo not given),9,-21,105,106
CCOC(=O)/C=C1\SCC(=O)N1CCOC(=O)c1ccccc1SC,-10,-28,133,133
O=C(c1cnc2sccn2c1=O)N1CCCc2ccccc21,-3,-2,101,105
CCN1CCN(C(=O)c2ccc3c(c2)sc2nc(-c4ccc(C)cc4)cn23)CC1,-2,-15,101,106
O=C1ON=C2C3CC4CC12CC1(C3)C(=O)ON=C41,-5,20,99,104
CNC(=O)CSc1cn(CC(=O)N2CCC(C)CC2)c2ccccc12,1,6,102,104
C#CC(CC)(CC)NC(=O)c1oc2ccccc2c1CSc1nc(C)cs1,10,7,103,104
COC(=O)C1=NNC2(C)C(=O)N(c3ccccc3)C(=O)C12 (stereo not given),.,-8,101,103
Cn1c(=O)c2c(n(C)c1=O)=NC1(CCCCC1)N=2,1,-40,104,102
Cc1oc(-c2ccccc2)nc1CSc1nc2ncccc2[nH]1,-11,-6,100,105
Cc1ccccc1OC(C)C(=O)N1CCCc2ccccc21 (stereo not given),-8,-15,101,103
Cc1ccc2[nH]cc(CCNC(=O)C3CCCO3)c2c1 (stereo not given),9,-19,99,102
O=C(Cc1ccccc1)NCCN1CCCC1,.,-9,101,106
CCOC(=O)Nc1ccc2c(C)cc(=O)oc2c1,84,17,100,103
Cc1ccc(CNC(=O)C2CCC(CNc3nc(=S)[nH]c4ccccc34)CC2)o1 (stereo not given),-5,3,100,104
CCc1cccc(NS(=O)(=O)c2cc(Br)cc3c2N(C(=O)C2CC2)CC3)c1,0,-6,100,102
Cc1ccc(N=C2NC(=O)CS2)c(C)c1,-1,.,101,98
COc1cc2nc(-c3ccc4c(c3)C(=O)N(CC(C)C)C4=O)oc(=O)c2cc1OC,20,8,103,99
CCN1C(=O)N(c2cc(C)ccc2C)C2CS(=O)(=O)CC21 (stereo not given),-11,3,101,101
Cc1cc2c(cc1S(=O)(=O)NCC1CCCO1)n(C)c(=O)c(=O)n2C (stereo not given),-5,-17,101,97
CN(C)C=Nc1ccc2nonc2c1,.,-71,102,172
CC1(C)N=C(c2ccccc2)C(=S)N1C(=O)c1ccccc1,57*,-19,98,102
Cc1cc(C(=O)Nc2ccc3c(c2)OCCO3)oc1C,10,-8,100,103
CCC(NC(=O)c1ccccc1NC(=O)c1ccco1)C(=O)Nc1ccc(C)cc1 (stereo not given),86,-6,103,106
Cn1ncc2c(=O)n(CC(=O)Nc3cccnc3Cl)cnc21,-2,3,102,104
Cn1nc(-c2ccc(Cl)cc2)c2cc(C(=O)N3CCCC3)sc21,36,-9,99,102
CCOC(=O)c1oc2ccccc2c1COC(=O)COc1ccccc1OCC,-8,-51,104,93
CC1(C)CC(=O)C=C(NCCCn2ccnc2)C1,15,-11,103,102
CSc1nncc(-c2ccc(Cl)cc2)n1,-9,-8,109,113
O=C(NC1CCS(=O)(=O)C1)C1CCCC1 (stereo not given),-15,-18,.,.

# (continued)
SMILES,MbtI inh,Mtb MenB inh,PV pol inh,PV pol inh intensity
CC1=COC=C(C=NCc2ccccc2)N1c1ccccc1,.,11,98,103
CC(C)Cn1c(SCc2ccc(C#N)cc2)nc2ccccc2c1=O,4,-30,97,104
Cn1c(=O)c2cc(C(=O)N3CCCCC3)sc2c2ccccc21,-5,-16,100,101
CCOC(=O)c1oc2ccccc2c1COC(=O)c1c(CC)noc1C,-9,-11,98,96
Cc1nc(-c2ccccc2)sc1C(=O)/C=C/N(C)C,9,-29,101,104
Cc1ccc(-c2csc(Nc3ccc4c(c3)OCO4)n2)cc1C,.,-15,110,115
CCN(CC)C(=O)/C(C#N)=C/c1cc(Br)cs1,5,8,103,101
Cc1cc(C)n(CNc2nccs2)n1,.,0,111,112
CN(C(=O)c1cn(C)c(=O)cc1C(F)(F)F)c1ccc(Cl)c(Cl)c1,-16,-12,105,112
N#Cc1ccc(N=C/C(Br)=C/c2ccccc2)cc1,-40,.,103,110
c1ccc(Cc2nc3ccccc3o2)cc1,-15,-13,99,103
COC(CNC(=O)c1cc(C)nn1-c1ccccc1)OC,9,-7,102,106
O=C(O)c1cccnc1C(=O)N1CCc2c([nH]c3ccccc23)C1C(F)(F)F (stereo not given),-2,-21,102,99
CC1CC(C)CN(S(=O)(=O)c2cccc(C(=O)Nc3ncn[nH]3)c2)C1 (stereo not given),-3,-10,107,102
Cc1cc(C)n(-c2ccc(C(=O)NCCc3ccc(S(N)(=O)=O)cc3)cc2)n1,15,-26,103,106
CCOC(=O)C1=C(CC)OC(N)=C(C#N)C1c1ccccc1 (stereo not given),-67,-35,99,102
COC(=O)C1CN(C(=O)COc2ccccc2OC)c2ccccc2O1 (stereo not given),-1,8,101,104
CC(C(=O)NCCCn1ccnc1)(c1ccccc1)c1ccccc1,.,-3,104,99
COc1ccc(C(=O)CNc2ccc(C#N)cc2)cc1,-3,.,100,96
